From PubChem
RanGTP-Impb inh: disruptors of Ran-importin-beta complex formation – biochemical, FRET, CFP-Ran, YFP-importin-beta, homogeneous, primary screen. 300,000 compounds, 1.1% hits. inhibition, % (no concentration beside the values). cell-free CFP-Ran/YFP-importin-beta FRET ratio. AID 2216;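 active = most replicates above 15%; inconclusive = exactly half above 15%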;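 also: 0% = DMSO wells and 100% = Ran loaded with GDP instead of GTP; wells of about 40 µL received 100 nL stock; the first replicate is given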
Vif A3G: inhibitors of Vif binding to APOBEC3G peptide, primary screen, biochemical, TR-FRET, GST-Vif 1-94, biotin-A3G peptide, dose response retest (AID 1117319). TR-FRET GST-Vif / biotin-A3G peptide binding; higher % means a stronger effect; test concentration not given here; strong numbers were not always called active. inhibition, %, or IC50 in µM where a hit was titrated. 260,000 compounds, 0.57% hits;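 active = above the screen mean plus three standard deviations and confirmed in dose response; inconclusive = results disagree or hit not tested in dose response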;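 also: Vif residues 1-94 fused to GST binding biotinylated APOBEC3G peptide 110-148; 0% = full assay without inhibitor and 100% = GST in place of GST-Vif; retest series ran down from 100 µM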
HNF4A DNA FP: change in binding of human HNF4 alpha to DNA; 360,000 compounds, 0.3% hits; activity change, % at 10 µM; HNF4a-FITC DNA binding, fluorescence polarization, 1 h; P41235; in the data active = activity change above about 30%, passing the limit was not always enough;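 also: controls were the assay level and a saturating level of protein; the project sought stronger binding though the title names inhibitors; some compounds called inactive have numbers as strong as hits; positive values seem to mean higher polarization but the record does not say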
Target sequence (P41235 whole entry, looked up): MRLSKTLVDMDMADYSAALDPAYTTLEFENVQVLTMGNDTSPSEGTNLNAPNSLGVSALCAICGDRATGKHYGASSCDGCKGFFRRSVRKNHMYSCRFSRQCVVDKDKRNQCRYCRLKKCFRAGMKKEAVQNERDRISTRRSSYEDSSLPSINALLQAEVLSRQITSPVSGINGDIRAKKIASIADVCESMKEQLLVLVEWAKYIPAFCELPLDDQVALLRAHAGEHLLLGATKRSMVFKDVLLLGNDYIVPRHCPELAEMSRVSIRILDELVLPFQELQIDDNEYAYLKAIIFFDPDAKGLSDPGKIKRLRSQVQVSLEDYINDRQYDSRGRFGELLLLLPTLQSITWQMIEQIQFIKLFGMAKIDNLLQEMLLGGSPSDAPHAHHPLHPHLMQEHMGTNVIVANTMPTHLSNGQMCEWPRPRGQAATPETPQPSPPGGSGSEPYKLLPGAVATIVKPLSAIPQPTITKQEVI
ALR inh: blocks human ALR sulfhydryl oxidase activity. P55789. 290,000 compounds, 3.8% hits. inhibition, % (concentration not given with the values). purified ALR, DTT oxidation, H2O2 HRP-luminol luminescence;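 active = mean and each replicate at 75% or more; inconclusive = only one of the two met; inactive = neither met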;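 also: stock transfer was 7.5 nL into about 7.5 µL; 0% = neutral wells and 100% = wells with inactivated enzyme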
Beta2AR agonist: activates human beta-2 adrenergic receptor causing internalization; response, % (concentration not given with the values); 340,000 compounds, 0.43% hits; AID 504454; Am2.2-beta2AR cells, FAP receptor internalization, flow cytometry; reference of the scale not given here; P07550;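 active = response above a set limit, near 3 SD of response in nonfluorescent compounds, cut at about 42% in these data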;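 also: stock transfer was 100 nL into about 11 µL; a reference agonist was the positive control; negative values mostly stem from fluorescent compounds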
Target sequence (P07550 whole entry, looked up): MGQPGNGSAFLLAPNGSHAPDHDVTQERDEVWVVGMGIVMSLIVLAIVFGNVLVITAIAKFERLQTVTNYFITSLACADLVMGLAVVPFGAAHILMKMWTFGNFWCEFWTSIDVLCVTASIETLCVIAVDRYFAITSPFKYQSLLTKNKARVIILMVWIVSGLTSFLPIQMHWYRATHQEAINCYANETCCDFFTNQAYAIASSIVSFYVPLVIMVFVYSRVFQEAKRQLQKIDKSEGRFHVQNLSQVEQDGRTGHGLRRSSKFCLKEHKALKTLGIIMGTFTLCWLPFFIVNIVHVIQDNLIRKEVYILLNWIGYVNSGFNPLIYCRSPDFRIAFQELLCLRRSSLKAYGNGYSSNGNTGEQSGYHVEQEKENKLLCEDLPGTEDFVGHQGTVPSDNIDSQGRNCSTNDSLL
Calb FLC: affects C. albicans growth with fluconazole | C. albicans CaCi-2 (fluconazole-resistant clinical isolate) + fluconazole, Alamar Blue growth, 48 h | growth inhibition, % (test concentration not listed) | 300,000 compounds, 0.57% hits | AID 1979;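 active = most replicates above 75%; inconclusive = exactly half above 75%; inactive = most below 75%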;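 also: all wells also contain fluconazole at 8 µg/ml as a sub-toxic cotreatment; 0% = median of DMSO wells and 100% = median of geldanamycin control wells; wells of about 8 µL received 7.5 nL stock; the first replicate is given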
LANA-H2B inh: blocks KSHV LANA binding to histone H2A/H2B; AID 2629; 320,000 compounds, 0.6% hits; cell-free LANA-H2A/H2B peptide, fluorescence polarization; Q9QR71; inhibition, % (concentration not given with the values); in the data active = inhibition mostly above about 10%, no sharp cut-off; inactive = mostly below about 6.7%;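 also: stock transfer was 7.5 nL into about 10 µL; 0% = median of vehicle wells and 100% = median of positive control wells; one replicate is shown; the record names a cut of 25% in any replicate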
Active calls of the source: *; ? = inconclusive; . = no result given; & = joins results of further samples.

SMILES	RanGTP-Impb inh	Vif A3G	HNF4A DNA FP	ALR inh	Beta2AR agonist	Calb FLC	LANA-H2B inh
O=C(Cc1ccc(NC(=O)C2CCCN(C(=O)C3CCC3)C2)cc1)Nc1ccc(C(=O)N2CCOCC2)cc1 (stereo not given)	.	-1%	0.1	.	-7	.	.
CC(Sc1nnc(COc2ccc(Cl)cc2)n1Cc1ccccc1)C(=O)O (stereo not given)	11	3%	4.0	28	-4	-2	-5.9
CCc1ccc(S(=O)(=O)/N=C2\C=C(NS(=O)(=O)c3ccccc3)C(=O)c3ccccc32)cc1	6.0	16%	0.1	.	14	35	.
Cc1cc(C)nc(SCC(=O)n2c3c(c4ccccc42)CCCC3)n1	5.2	-4%	1.2	1	-13	-17	3.8
O=C1CCCC(=O)N1c1ccc(Oc2ccc(Cl)cc2)cc1	-2.0	12%	1.2	-5	-7	-12	0.4
CC(C)(CNC(=O)COc1ccccc1Cc1ccccc1)N1CCOCC1	-0.7	-7%	2.4	-15	-8	7	-0.5
COCCn1c(SCC(=O)Nc2cc(C)cc(C)c2)nnc1C(C)C	5.0	-3%	6.9	100*	3	-10	-1.7
O=C(CCn1c(=S)oc2ccccc21)Nc1ccccc1Br	4.6	-2%	0.0	-2	-10	1	-2.0
CC(Oc1ccc2c(c1)oc(=O)c1ccccc12)C(=O)NC(Cc1c[nH]c2ccc(O)cc12)C(=O)O (stereo not given)	-1.7	.	4.0	.	-3	2	0.2
CC(C)=C(NC(=O)c1ccccc1)C(=O)Nc1cccc(C)c1	1.4	-2%	-0.3	-4	5	-1	1.5
Cc1ccc(C2CC(=O)c3cnc(NC(=O)c4ccco4)nc3C2)cc1 (stereo not given)	?	?	0.5	.	-13	3	.
CCOC(=O)C1=C(C)NC(=O)NC1c1ccc(C)o1 (stereo not given)	3.6	7%	-2.0	3	3	-3	-4.2
COc1ccc(NS(=O)(=O)c2cccc(C(=O)N3CCC3)c2)cc1	-0.6	0%	0.1	3	5	.	-4.7
CCCCCN=C(N)N/N=C/c1c[nH]c2ccc(OC)cc12	1.5	.	4.7	68	47*	.	1.0
COc1cc(C2=NC(CO)(CO)CO2)cc(OC)c1OC	3.9	0%	-7.4	-14	2	-3	3.7

Quoted at random: 7 compounds from above, in no set order.
SMILES	RanGTP-Impb inh	Vif A3G	HNF4A DNA FP	ALR inh	Beta2AR agonist	Calb FLC	LANA-H2B inh
CC(C)=C(NC(=O)c1ccccc1)C(=O)Nc1cccc(C)c1	1.4	-2%	-0.3	-4	5	-1	1.5
O=C1CCCC(=O)N1c1ccc(Oc2ccc(Cl)cc2)cc1	-2.0	12%	1.2	-5	-7	-12	0.4
Cc1ccc(C2CC(=O)c3cnc(NC(=O)c4ccco4)nc3C2)cc1 (stereo not given)	?	?	0.5	.	-13	3	.
CC(Sc1nnc(COc2ccc(Cl)cc2)n1Cc1ccccc1)C(=O)O (stereo not given)	11	3%	4.0	28	-4	-2	-5.9
Cc1cc(C)nc(SCC(=O)n2c3c(c4ccccc42)CCCC3)n1	5.2	-4%	1.2	1	-13	-17	3.8
CCOC(=O)C1=C(C)NC(=O)NC1c1ccc(C)o1 (stereo not given)	3.6	7%	-2.0	3	3	-3	-4.2
COc1ccc(NS(=O)(=O)c2cccc(C(=O)N3CCC3)c2)cc1	-0.6	0%	0.1	3	5	.	-4.7

Other results follow.
SMILES	RanGTP-Impb inh	Vif A3G	HNF4A DNA FP	ALR inh	Beta2AR agonist	Calb FLC	LANA-H2B inh
O=C(CNS(=O)(=O)c1ccccc1)N/N=C/c1ccc(O)cc1	2.1	15%	2.4	99*	5	-3	-4.0
COc1ccc(C2CC3(O)CC(C#N)(C(=O)N3)C2(C#N)C#N)cc1 (stereo not given)	4.1	-7%	2.6	-5	-4	-18	0.6
COc1ccc(N(C(=O)c2ccco2)C(C(=O)NC2CCCC2)c2ccncc2)cc1OC (stereo not given)	1.7	0%	0.2	-24	3	21	4.1
CC(C)N(C(=O)Cn1cc(S(=O)(=O)CC(=O)N2CCOCC2)c2ccccc21)C(C)C	2.9	.	0.0	-9	-3	18	4.5
COc1ccccc1C(=O)N1CCN(Cc2nc(CC3CC3)no2)CC1	2.5	-7%	3.0	-17	4	-12	4.6
CCN(CC)CCCNC(=O)CCC(=O)Nc1ccc2nc(N3CCCCC3)cc(C)c2c1	0.1	.	2.9	.	-1	-7	-1.7
Cc1cc(-c2cc(C(=O)NCc3ccccc3)on2)nc(S(C)(=O)=O)n1	-0.3	-2%	6.6	5	8	2	-2.9
CC(NC(=O)Nc1ccccc1C(F)(F)F)C1CCCO1 (stereo not given)	0.0	4%	2.9	12	5	-8	1.3
CC(C)n1nc(C(=O)Oc2cc(Cl)ccc2Cl)c2ccccc2c1=O	4.7	-3%	-0.2	-27	2	-15	-1.9
COC(=O)c1cc(Cl)c(NC(=O)/C=C/c2ccc(Cl)cc2)cc1OC	0.7	17%	-4.8	10	5	-7	1.6
Cc1c(C)c2ccc(OCC(=O)NC3CCN(Cc4ccccc4)CC3)c(C)c2oc1=O	-1.2	.	-1.1	0	-1	4	-2.2
CC(=C/c1ccccc1)/C=N/n1c(C)n[nH]c1=S	4.7	5%	2.4	29	2	-20	-0.8
Cc1cccc(C2Nc3ccccc3C(=O)N2c2ccc(F)cc2)n1 (stereo not given)	-2.8	-2%	0.9	-2	-1	-12	1.3
COc1ccc([N+](=O)[O-])cc1N(CC(O)CN1CCCCC1)S(=O)(=O)c1ccccc1 (stereo not given)	.	25%	0.3	-23	-2	-8	1.5
CC(C)C(NS(=O)(=O)c1cccs1)C(=O)NCc1ccccc1Cl (stereo not given)	-2.8	-1%	-4.2	-2	7	-29	-2.2

Compound profiles, from the list above:
Cc1c(C)c2ccc(OCC(=O)NC3CCN(Cc4ccccc4)CC3)c(C)c2oc1=O as listed: RanGTP-Impb inh = -1.2; Vif A3G = .; HNF4A DNA FP = -1.1; ALR inh = 0; Beta2AR agonist = -1; Calb FLC = 4; LANA-H2B inh = -2.2
O=C(CNS(=O)(=O)c1ccccc1)N/N=C/c1ccc(O)cc1 as listed: RanGTP-Impb inh = 2.1; Vif A3G = 15%; HNF4A DNA FP = 2.4; ALR inh = 99*; Beta2AR agonist = 5; Calb FLC = -3; LANA-H2B inh = -4.0
CC(C)n1nc(C(=O)Oc2cc(Cl)ccc2Cl)c2ccccc2c1=O as listed: RanGTP-Impb inh = 4.7; Vif A3G = -3%; HNF4A DNA FP = -0.2; ALR inh = -27; Beta2AR agonist = 2; Calb FLC = -15; LANA-H2B inh = -1.9

Going on with the list.
SMILES	RanGTP-Impb inh	Vif A3G	HNF4A DNA FP	ALR inh	Beta2AR agonist	Calb FLC	LANA-H2B inh
CC(c1ccc(F)cc1)n1cc(C(=O)NCCN(C)C)nn1 (stereo not given)	-3.0	1%	1.8	-13	-10	34	-4.0
Cc1nc(C)c(C(=O)OCC(=O)NCc2ccccc2Cl)s1	.	-4%	1.1	-2	4	.	1.3
CCOc1ccc(N2CC(C(=O)Nc3ccc(S(=O)(=O)N4CCCC4)cc3)CC2=O)cc1 (stereo not given)	-0.2	-1%	-0.8	-4	-7	-2	4.3
C[C@H](O)[C@@H]1C(=O)N2CCc3ccc(N4CCN(C)CC4)cc3[C@@H]2C[C@@H]1N(C)C(=O)c1ccc(C#N)cc1	.	0%	-0.1	.	-10	.	.
CCN1C(=O)C(Cc2nc3ccccc3c(=O)n2C)c2ccccc21 (stereo not given)	3.2	3%	-0.2	.	1	6	-2.8
O=C(COC(=O)C1CCN(C(=O)Nc2ccccc2)CC1)NCC(F)(F)F	?	9%	-1.1	-3	-2	-9	4.3
O=C(Cn1c(C(F)(F)F)nc2ccccc21)c1ccc(Br)cc1	-0.4	-9%	3.7	-4	5	5	1.7
CCc1cc(-c2n[nH]c(C)c2-c2nc3ccccc3s2)c(O)cc1OCC(=O)NN	5.3	-7%	2.3	27	-1	5	.
O=C(Nc1ncc(S(=O)(=O)c2ccc([N+](=O)[O-])cc2)s1)c1ccc2ccccc2c1	-2.4	?	2.5	-14	16	-12	-0.9
Cc1c(NC(=O)N(C)C)c(=O)n(-c2ccccc2)n1C	0.7	5%	-0.9	-1	0	-6	-3.0
CC[C@]1(C(=O)OC)[C@H]2C(=O)N(Cc3ccccc3)C(=O)[C@H]2[C@H]2CN=C(SCc3ccc(C(=O)OC)cc3)N21	.	-2%	-1.5	.	0	.	.
CSc1nnc(-c2ccccc2)n1C	3.7	0%	3.0	-8	-2	4	4.9
COC(=O)C1=NN(c2ccccc2)C2(S1)S/C(=C\c1ccccc1)C(=O)N2c1ccccc1 (stereo not given)	-3.1	0%	-0.2	-28	4	-8	-3.1
c1ccc(-c2n[nH]c(-c3ccccn3)n2)nc1	0.0&2.8	?	-1.6&5.8	-3&-4	-3&-17	-11&-17	6.8&-3.0
CCCC[n+]1ccn(-c2nc3c([N+](=O)[O-])cccc3n2C)c1	-2.2	-2%	2.0	-4	2	4	-9.0
COc1ccc(-c2coc3cc(OC(C)=O)ccc3c2=S)cc1	.	6%	4.6	.	-4	.	.
CCN(CC)c1ccc(C(=O)OCC(=O)Nc2ncccn2)cc1	.	-2%	-4.0	.	2	.	-0.8
Cc1ccc(OCCNC(=O)c2ccc(C)o2)cc1	.	.	-4.9	-1	6	.	0.4
Cc1ccc(S(=O)(=O)N(CC(=O)N(C(C)C)C(C)C)C(=O)N2CCN(C)CC2)cc1	0.0	?	-2.7	-21	2	0	8.2
Cc1oc(/N=C/c2ccc3c(c2)OCO3)c(C#N)c1C	-2.7	9%	-3.0	0	2	-5	0.5
CC(=O)N1CCN(CC(=O)Nc2cc([N+](=O)[O-])ccc2Cl)CC1	.	-11%	1.4	-10	-3	-1	-1.3
CCCCN1CC(COCc2ccccc2)Oc2cccc(Oc3cc(C)c(C)c(C)c3)c2S1(=O)=O (stereo not given)	.	2%	-0.5	.	10	.	.
CCn1c(=O)cc(OCC(=O)N2CCc3ccccc32)c2ccccc21	.	-30%&-35%	0.8	.	-9	.	.
CCOC(=O)C(C(C)=O)=C1SC2CS(=O)(=O)CC2S1 (stereo not given)	-2.8	22%	1.3	46	6	5	0.3
CN(C)S(=O)(=O)c1cccc(NC(=O)c2cc(-c3cccs3)nn2-c2ccccc2)c1	-5.7	-17%	-3.5	14	1	-1	-1.5
OCCCn1c(C2CCCN2c2nc(-c3ccc(Cl)cc3)cs2)nc2cc(Cl)c(Cl)cc21 (stereo not given)	0.5	.	-3.3	-6	2	16	2.3
CCOC(=O)Cn1nnnc1C(CC)N(Cc1cccs1)Cc1cc2cc(C)ccc2[nH]c1=O (stereo not given)	7.2	-1%&3%	-1.3	-4	8	8	3.5
Cc1ccc(Cn2ncc3c(N4CCN(c5ccccc5C)CC4)ncnc32)cc1	-2.4	23%	-1.9	-6	27	10	-6.3
COc1ccc(NC(=O)c2cccnc2)c(OC)c1	2.3	0%	1.1	-14	15	8	-0.2
COc1ccccc1-n1cnnc1SCC(=O)Nc1cc(C(C)(C)C)nn1-c1ccccc1	2.5	-2%	-1.2	-2	-10	-3	0.5
